Compound activity (PubChem)
RN4220 kill – S. aureus RN4220 growth inhibition; OD600, 16 h; inhibition, % (test concentration not listed); 330,000 tested, 0.33% active;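 active means z-score of -3 or lower and OD600 up to 0.18 on both plates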;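 further: plate controls were untreated cells for no effect and reference antibiotic for full effect; stock transfer was 100 nL into about 80 µL; one replicate is shown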
Sa ugtP lethal – growth inhibition of S. aureus ugtP deletion strain; growth inhibition, % (no concentration beside the values); 330,000 tested, 0.54% active; S. aureus RN4220 ugtP deletion, OD600 growth, 16 h; some inactives read as strong as hits;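 active means z-score under -3 and OD600 up to 0.15 on both plates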;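 further: plate controls were untreated wells for no effect and antibiotic for full effect; wells of about 80 µL received 100 nL stock; the first replicate is given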
BJeLR lethal – kills HRASV12-expressing BJeLR cells | BJeLR (HRASV12) viability, CellTiter-Glo ATP luminescence, 48 h; reference of the scale not given here | inhibition, % (test concentration not listed) | 300,000 tested, 0.17% active | AID 1554;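 active means replicate mean above 50%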;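 further: 50 nL library stock added to about 25 µL; numbers are from one replicate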
Bead autofluor – flagged as autofluorescent in microsphere protease counterscreen; 360,000 tested, 3.1% active; compound autofluorescence counterscreen, microsphere flow cytometry; stronger effect = higher value; fluorescence intensity (concentration not given with the values);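 active means at least 3 SD above the mean of all compounds, about 16000 in these data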;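 further: 100 nL of 1 mM stock went into each well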
Mtb hypoxia inh – inhibitors of hypoxia-regulated fluorescent reporter in Mycobacterium tuberculosis | fluorescence inhibition, % (no concentration beside the values) | M. tuberculosis hypoxia-regulated fluorescent reporter, fluorescence | 300,000 tested, 0.1% active;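 active means 35 to 45% if threefold the growth effect, above 45% if 1.5-fold the growth effect; inactive means the rest, general growth blockers included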;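 further: wells of about 50 µL received 100 nL stock; 0% = vehicle wells and 100% = reference inhibitor wells; whole bacteria with a GFP reporter of the hypoxia response; strong numbers were not always called active; many hits fall short of the cut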
PrP 5UTR inh – suppresses PrP 5' UTR mRNA reporter expression; 340,000 tested, 0.35% active; inhibition, % (no concentration beside the values); cell-based PrP 5' UTR mRNA reporter, plate reader;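 active means every replicate at 50% or more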;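 further: 0 = median of the neutral control wells; tested in H4 reporter cells; numbers are from one replicate; inactives centre near -14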
Mtb hypoxia inh growth – also measured in Mtb hypoxia inh; calls as there; growth inhibition, %; measured here: M. tuberculosis growth (absorbance);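 0% = vehicle and 100% = reference antibiotic; read after six days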
* hit, by the source's call.

For CN1CCN(c2ccccc2/C=C2/C(=O)Nc3ccccc32)CC1 the results were RN4220 kill 2.0, Sa ugtP lethal 11, BJeLR lethal 2, Bead autofluor 3183, Mtb hypoxia inh 1, PrP 5UTR inh -8 and Mtb hypoxia inh growth -2.
Screening O=C(C1CCC1)N1CCc2cc(S(=O)(=O)NCc3ccco3)ccc21 returned RN4220 kill 1.4, Sa ugtP lethal 5, BJeLR lethal 8, Bead autofluor 2943 and PrP 5UTR inh -5.
For CCCn1c(CNC(=O)c2ccccc2)nc2ccccc21 the results were RN4220 kill 2.3, Sa ugtP lethal 2, BJeLR lethal -2, Bead autofluor 11225, Mtb hypoxia inh 8 and Mtb hypoxia inh growth 8.
`COC(Cc1n[nH]c(=S)n1-c1ccc(Cl)cc1)OC` gave RN4220 kill 5.6, Sa ugtP lethal -1, BJeLR lethal -9, Bead autofluor 5841, Mtb hypoxia inh -3, PrP 5UTR inh -23 and Mtb hypoxia inh growth 9.
CCSC(=Nc1ccccc1)N1CCOCC1 was read as RN4220 kill 4.3, Sa ugtP lethal 12, BJeLR lethal 12, Bead autofluor 4278, Mtb hypoxia inh 7 and Mtb hypoxia inh growth 0.
Screening CC1CCCCN1C(=O)CSc1nc2cc3c(cc2c(=O)n1Cc1ccc2c(c1)OCO2)OCO3 (stereo not given) returned RN4220 kill -7.7, Sa ugtP lethal -19, BJeLR lethal -8, Bead autofluor 21942*, Mtb hypoxia inh 2, PrP 5UTR inh -6 and Mtb hypoxia inh growth 12.
COc1ccc(CC(C)=NNC(=O)c2c[nH]c3ccccc23)cc1OC was read as RN4220 kill 2.6, Sa ugtP lethal 8, Mtb hypoxia inh 5 and Mtb hypoxia inh growth -4.
Screening O=C(CNc1cccc(Cl)c1)c1ccc(Br)cc1 returned RN4220 kill 2.6, Sa ugtP lethal -2, BJeLR lethal 1, Bead autofluor 3775, Mtb hypoxia inh 9, PrP 5UTR inh -12 and Mtb hypoxia inh growth 3.
O=C(COC(=O)c1ccc2c(c1)OCO2)Nc1nc(-c2ccccc2)cs1 was read as RN4220 kill 4.6, Sa ugtP lethal -1, BJeLR lethal -6, Bead autofluor 4042, Mtb hypoxia inh -4, PrP 5UTR inh -30 and Mtb hypoxia inh growth -3.
`Cc1nccn1CCCN1C(=O)CNC1=S` gave RN4220 kill 5.4, Sa ugtP lethal 1, BJeLR lethal -4, Bead autofluor 2486, Mtb hypoxia inh -4, PrP 5UTR inh -7 and Mtb hypoxia inh growth -2.
Screening O=S(=O)(Nc1cc(S(=O)(=O)N2CCOCC2)ccc1N1CCCC1)c1cccs1 returned RN4220 kill 4.4, Sa ugtP lethal 5, BJeLR lethal 3, Bead autofluor 4611, Mtb hypoxia inh 12, PrP 5UTR inh -25 and Mtb hypoxia inh growth -1.
Cc1nnc(SCC(=O)NC(=O)NCc2ccco2)s1 was read as RN4220 kill 1.1, Sa ugtP lethal 2, BJeLR lethal 2, Bead autofluor 3989, Mtb hypoxia inh 11, PrP 5UTR inh -26 and Mtb hypoxia inh growth 7.
Screening O=C(COc1ncnc2scc(-c3ccccc3)c12)NC1CCCc2ccccc21 (stereo not given) returned RN4220 kill 13, Sa ugtP lethal 27, BJeLR lethal 2, Bead autofluor 8760, Mtb hypoxia inh -4, PrP 5UTR inh -5 and Mtb hypoxia inh growth -1.
c1cnc2nc(CSc3ncn[nH]3)cn2c1 was read as RN4220 kill 2.1, Sa ugtP lethal 7, Bead autofluor 4574, Mtb hypoxia inh -1, PrP 5UTR inh -9 and Mtb hypoxia inh growth 6.
Screening COC(=O)COc1ccc2oc(=O)cc(-c3cc4cccc(OC)c4o3)c2c1 returned RN4220 kill 0.6, Sa ugtP lethal -3, BJeLR lethal 2, Bead autofluor 5027, Mtb hypoxia inh 4, PrP 5UTR inh -20 and Mtb hypoxia inh growth 8.
Screening Cc1nnc(SCC(=O)NC2CCS(=O)(=O)C2)n1-c1ccccc1 (stereo not given) returned RN4220 kill 0.5, Sa ugtP lethal 1, BJeLR lethal 5, Bead autofluor 4426, Mtb hypoxia inh -2, PrP 5UTR inh -5 and Mtb hypoxia inh growth 3.
Screening CCCNC(=O)N1CCCC(C(=O)c2cccc(Cl)c2)C1 (stereo not given) returned RN4220 kill 0.4, Sa ugtP lethal 9, BJeLR lethal -3, Bead autofluor 3138, Mtb hypoxia inh 11, PrP 5UTR inh -15 and Mtb hypoxia inh growth 8.
Screening COc1ccc(NC(=O)CN2C(=O)NC3(CC(C)CC(C)(C)C3)C2=O)cc1S(=O)(=O)N1CCCCC1 (stereo not given) returned RN4220 kill -4.9, Sa ugtP lethal 64, BJeLR lethal 3, Bead autofluor 4860, Mtb hypoxia inh 5, PrP 5UTR inh -6 and Mtb hypoxia inh growth 5.
`CC1(C)CC(=O)C2=C(C1)OC(/N=C/N1CCOCC1)=C(C#N)C2c1ccccc1` (stereo not given) gave BJeLR lethal -2, Bead autofluor 3448 and PrP 5UTR inh -7.
COC(=O)c1c[nH]n2c(=O)cc(CCl)nc12 was read as RN4220 kill 3.1, Sa ugtP lethal 4, BJeLR lethal -1, Bead autofluor 4410, Mtb hypoxia inh 7, PrP 5UTR inh -19 and Mtb hypoxia inh growth 7.
For Cc1ccc(NC2c3ncccc3C(=O)N2C2CCCCC2)cc1 (stereo not given) the results were RN4220 kill -1.5, Sa ugtP lethal 1, BJeLR lethal -8, Bead autofluor 10582, Mtb hypoxia inh -3, PrP 5UTR inh -17 and Mtb hypoxia inh growth 10.
Screening CC1(C)C(c2ccccc2)=NC(c2cccnc2)N1O (stereo not given) returned RN4220 kill 0.3, Sa ugtP lethal -1, BJeLR lethal 1, Bead autofluor 21816*, Mtb hypoxia inh -2, PrP 5UTR inh 4 and Mtb hypoxia inh growth -3.
For CCOc1ccccc1OCC(=O)Nc1ccc(N2CCOCC2)cc1N1CCOCC1 the results were RN4220 kill 3.9, Sa ugtP lethal 8, Mtb hypoxia inh 0, PrP 5UTR inh -24 and Mtb hypoxia inh growth 0.
Screening COc1ccc2c(C)cc(C)nc2n1 returned RN4220 kill 2.4, Sa ugtP lethal 4, BJeLR lethal 11, Bead autofluor 3811, Mtb hypoxia inh 8, PrP 5UTR inh -9 and Mtb hypoxia inh growth -9.
Cc1cc2oc(=O)cc(-c3ccccc3)c2c(C)c1-c1ccc(CO)cc1 was read as RN4220 kill -9.5, Sa ugtP lethal 1, Bead autofluor 3522 and PrP 5UTR inh -6.
Screening CC(Oc1cccc(Br)c1)C(=O)N1CCCN(C)CC1 (stereo not given) returned RN4220 kill 1.3, Sa ugtP lethal 13, BJeLR lethal 1, Bead autofluor 5462, Mtb hypoxia inh 5, PrP 5UTR inh -8 and Mtb hypoxia inh growth 6.
For CNc1c(NC(=O)c2ccc3c(c2)OCO3)c(=O)oc2ccccc12 the results were RN4220 kill 0.4, Sa ugtP lethal -4, BJeLR lethal 6, Bead autofluor 5875, Mtb hypoxia inh -2, PrP 5UTR inh -25 and Mtb hypoxia inh growth -7.
`O=S(=O)(Nc1ccc(N2CCOCC2)cc1)c1ccc(F)cc1F` gave RN4220 kill 4.5, Sa ugtP lethal 4, BJeLR lethal 4, Bead autofluor 4573, Mtb hypoxia inh -5, PrP 5UTR inh -4 and Mtb hypoxia inh growth -4.
Screening CCN(CC(=O)NCc1ccc(Cl)cc1)C(=O)COc1ccc(C)cc1C returned RN4220 kill 2.5, Sa ugtP lethal -1, BJeLR lethal -5, Bead autofluor 6215, Mtb hypoxia inh -5, PrP 5UTR inh 1 and Mtb hypoxia inh growth 5.
For COc1ccc2ccccc2c1/C=N/NC(=O)c1cc(C)[nH]n1 the results were BJeLR lethal -2, Bead autofluor 6028 and PrP 5UTR inh 1.
`Cc1ccc(-c2c3c(=O)n(C)c(=O)n(C)c3cn2-c2ccccc2O)cc1` gave RN4220 kill 5.9, Sa ugtP lethal -3, BJeLR lethal 1, Bead autofluor 4508, Mtb hypoxia inh 5, PrP 5UTR inh -11 and Mtb hypoxia inh growth 16.
`CC1CC[C@]2(C(=O)O)CC[C@]3(C)C(=CCC4[C@@]5(C)CCC(O)[C@@](C)(C(=O)O)C5CC[C@]43C)C2[C@]1(C)O` (stereo not given in full) gave RN4220 kill 23, Sa ugtP lethal -5, Mtb hypoxia inh 3 and Mtb hypoxia inh growth 8.
CCC1CCCCN1C(=O)CCn1ccnc1 (stereo not given) was read as RN4220 kill 4.5, Sa ugtP lethal 8, BJeLR lethal 0, Bead autofluor 3141, Mtb hypoxia inh 13, PrP 5UTR inh -13 and Mtb hypoxia inh growth 4.
`COc1ccc(C)cc1S(=O)(=O)N(CC(=O)Nc1cc([N+](=O)[O-])ccc1C)c1ccc(C)c(C)c1` gave RN4220 kill 2.7, Sa ugtP lethal 1, BJeLR lethal -4, Bead autofluor 1979, Mtb hypoxia inh 8, PrP 5UTR inh -16 and Mtb hypoxia inh growth 4.
COC(=O)c1cccc(OC(N)=O)c1 was read as RN4220 kill 1.7, Sa ugtP lethal 6, BJeLR lethal 1, Mtb hypoxia inh 3 and Mtb hypoxia inh growth 3.
For COc1ccc2[nH]c(C(=O)NN=Cc3ccccc3OC)cc2c1 the results were RN4220 kill 3.2, Sa ugtP lethal 1, Mtb hypoxia inh 19 and Mtb hypoxia inh growth 10.
`CCOC(=O)Cc1csc(NC(NC(=O)OCC)(C(F)(F)F)C(F)(F)F)n1` gave RN4220 kill 1.8, Sa ugtP lethal -1, BJeLR lethal -4, Bead autofluor 4139 and PrP 5UTR inh -12.
CCc1nc(=O)c(-c2ccccc2)c(C)n1-c1ccccc1 was read as RN4220 kill 4.7, Sa ugtP lethal 8, BJeLR lethal 0, Bead autofluor 3406, Mtb hypoxia inh 2, PrP 5UTR inh -11 and Mtb hypoxia inh growth 3.
`O=C(O)c1ccc([N+](=O)[O-])c2c1C(=O)c1ccccc1C2=O` gave RN4220 kill 1.4, Sa ugtP lethal 4, BJeLR lethal -3, Bead autofluor 20562*, Mtb hypoxia inh 11, PrP 5UTR inh -11 and Mtb hypoxia inh growth 8.
For COc1ccc(Nc2cc(Cl)nc(N)n2)cc1OC the results were RN4220 kill 3.5, Sa ugtP lethal 5, BJeLR lethal 1, Bead autofluor 4720, Mtb hypoxia inh 1, PrP 5UTR inh -3 and Mtb hypoxia inh growth 0.
For CC(=O)Nc1cc(C(=O)c2ccccc2)ccc1N1CCOCC1 the results were RN4220 kill 3.0, Sa ugtP lethal -4, BJeLR lethal -10, Bead autofluor 9748, Mtb hypoxia inh 4, PrP 5UTR inh -20 and Mtb hypoxia inh growth 5.
Cc1ccc(NCN2C(=O)C3C4C=CC(C4)C3C2=O)cc1 (stereo not given) was read as RN4220 kill 2.3, Sa ugtP lethal 1, BJeLR lethal -5, Bead autofluor 2406 and PrP 5UTR inh -23.

Grouped by structure: the compounds so far containing four or more nitrogen atoms (seven)
`Cc1nccn1CCCN1C(=O)CNC1=S` gave RN4220 kill 5.4, Sa ugtP lethal 1, BJeLR lethal -4, Bead autofluor 2486, Mtb hypoxia inh -4, PrP 5UTR inh -7 and Mtb hypoxia inh growth -2.
Cc1nnc(SCC(=O)NC(=O)NCc2ccco2)s1 was read as RN4220 kill 1.1, Sa ugtP lethal 2, BJeLR lethal 2, Bead autofluor 3989, Mtb hypoxia inh 11, PrP 5UTR inh -26 and Mtb hypoxia inh growth 7.
c1cnc2nc(CSc3ncn[nH]3)cn2c1 was read as RN4220 kill 2.1, Sa ugtP lethal 7, Bead autofluor 4574, Mtb hypoxia inh -1, PrP 5UTR inh -9 and Mtb hypoxia inh growth 6.
Screening Cc1nnc(SCC(=O)NC2CCS(=O)(=O)C2)n1-c1ccccc1 (stereo not given) returned RN4220 kill 0.5, Sa ugtP lethal 1, BJeLR lethal 5, Bead autofluor 4426, Mtb hypoxia inh -2, PrP 5UTR inh -5 and Mtb hypoxia inh growth 3.
Screening COc1ccc(NC(=O)CN2C(=O)NC3(CC(C)CC(C)(C)C3)C2=O)cc1S(=O)(=O)N1CCCCC1 (stereo not given) returned RN4220 kill -4.9, Sa ugtP lethal 64, BJeLR lethal 3, Bead autofluor 4860, Mtb hypoxia inh 5, PrP 5UTR inh -6 and Mtb hypoxia inh growth 5.
For COc1ccc2ccccc2c1/C=N/NC(=O)c1cc(C)[nH]n1 the results were BJeLR lethal -2, Bead autofluor 6028 and PrP 5UTR inh 1.
For COc1ccc(Nc2cc(Cl)nc(N)n2)cc1OC the results were RN4220 kill 3.5, Sa ugtP lethal 5, BJeLR lethal 1, Bead autofluor 4720, Mtb hypoxia inh 1, PrP 5UTR inh -3 and Mtb hypoxia inh growth 0.
